Bioassay records deposited in PubChem BioAssay by National Center for Advancing Translational Sciences (NCATS).
GLA inh pH 4.5: alpha-galactosidase A (human) inhibition, pH 4.5. P06280. purified enzyme, 4-MU-alpha-Gal fluorescence, pH 4.5. activity change, negative = inhibition, % at 105 µM. 230,000 tested, under 10 active; inconclusive = small, poorly fitted or top-dose-only inhibition, or a rising curve; inactive = flat fitted curve, though single readings scatter; no compound was filed as active;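 note: 0% = full activity with enzyme and -100% = basal without enzyme; dose as in the result columns while the protocol names 77 µM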
Target sequence (P06280 whole entry, looked up): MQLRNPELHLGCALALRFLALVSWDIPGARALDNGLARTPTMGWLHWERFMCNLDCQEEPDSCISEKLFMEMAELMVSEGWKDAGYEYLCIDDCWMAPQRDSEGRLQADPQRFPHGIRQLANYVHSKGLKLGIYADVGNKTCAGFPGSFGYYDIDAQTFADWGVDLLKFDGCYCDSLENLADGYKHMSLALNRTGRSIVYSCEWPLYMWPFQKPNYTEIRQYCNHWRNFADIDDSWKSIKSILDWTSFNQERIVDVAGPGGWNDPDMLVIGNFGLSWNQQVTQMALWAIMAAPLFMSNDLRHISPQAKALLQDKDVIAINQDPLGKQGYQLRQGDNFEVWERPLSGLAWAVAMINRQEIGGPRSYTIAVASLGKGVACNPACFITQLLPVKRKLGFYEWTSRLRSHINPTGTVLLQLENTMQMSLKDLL
miR-21 FLuc: raises the signal of a miR-21 reporter; HeLa miR-21 FLuc reporter, luciferase, 48 h; Potency, µM (top dose mostly 38.3 µM), without a hit: at the top dose reporter change, positive = more light; 340,000 tested, under 10 active; active = well fitted rising curve with a large enough effect; inconclusive = small, poorly fitted or top-dose-only effect; inactive = no such curve, though single readings can be large or run the other way;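 note: % of control where 0% means no effect; miR-21 action dims this reporter so a rising signal means less miR-21 action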
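HeLa miR-21-FLuc reporter line, endogenous miR-21; 2000 cells/well in DMEM/10% FBS; compound titration up to ~40uM final, 48 h, 37 degree Celsius; luciferase detection reagent, 15 min lysis, CCD luminescence.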
Rango dissoc inh: inhibitors of RanGTP-induced Rango-importin beta complex dissociation; O95149+P62826; Biochemical FRET Rango-importin beta, RanGTP-induced dissociation; Potency, µM (highest dose often 46.1 µM), for the others: at the top dose activity change, negative = inhibition; 0.071% of 340,000 active; AID 540253; active means falling FRET ratio curve, often poorly fitted, with flat reads before Ran was added; inconclusive means other falling curves, or compound fluorescence or quenching; inactive means flat or rising ratio curve;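 note: potency is the fitted concentration of half-maximal effect; % of control where 0% means no effect; nearly all actives have a fitted effect of over 45% in size; -100% = wells without RanGTP and RCC1; the record marks most hits as doubtful in a second field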
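Compounds sat 5 min at room temperature with 0.1 uM Rango biosensor plus 0.25 uM importin beta, then FRET pre-read. RanGTP-RCC1 (0.6 uM Ran, 2mM GTP, 0.2 uM RCC1) added for 45 min, and the CFP/YFP post-read measured blocked complex dissociation.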
Rango-impB inh: inhibitors of Rango-importin beta complex formation; Q14974; Rango CFP/YFP FRET sensor + importin beta, 45 min; Potency, µM (highest dose often 92.2 µM), inactives show at the top dose inhibition of complex formation; 0.031% of 340,000 active; active = rising FRET ratio curve, often small or poorly fitted; inconclusive = mostly compound fluorescence or quenching in the first reads; inactive = flat curves in all reads;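 note: potency is the fitted concentration of half-maximal effect; 0% = DMSO wells and 100% = buffer wells lacking importin beta; nearly all actives have a fitted effect of over 15% in size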
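Inhibition scored from the CFP 486 nm/YFP 530 nm FRET ratio 45 min after adding 0.125 microM importin beta to 50 nM Rango biosensor preincubated 5 min with compound (room temperature, PBS with DTT, Tween-20, BSA). No-importin wells as positive control.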
Numbers without * were called inactive; ? = inconclusive; . = not tested or not shown.

Short keys: A = GLA inh pH 4.5; B = miR-21 FLuc; C = Rango dissoc inh; D = Rango-impB inh
O=C(CCn1c(=O)[nH]c2ccsc2c1=O)N1CC(=O)N(CCc2ccccc2)C(=O)C1
  A: 2	B: -3%	C: 6%	D: -1.7%

CCOC(=O)c1c(C)nc2sc3c(=O)n(-c4ccc(C(C)=O)cc4)nnc3c2c1-c1ccc(Cl)cc1
  A: -7	B: 0%	C: 7%	D: -3.7%

Cc1ccccc1CCN1CCCC(CN(C)C(=O)C(=O)c2ccco2)C1 (centres undefined)
  A: .	B: -23%	C: -7%	D: 1.6%

COCCN(C(=O)CCN1C(=O)C2CC=CCC2C1=O)c1c(N)n(CC(C)C)c(=O)[nH]c1=O (centres undefined)
  A: .	B: .	C: 23%	D: -5.0%

CCOc1ccc(C2Sc3ccccc3NC3=C2C(=O)OC3)cc1 (centres undefined)
  A: -8	B: -17%	C: -8%	D: -1.9%

COc1ccc(NC(=O)c2c(Cl)n(C)c3ccccc23)cc1
  A: 4	B: -12%	C: -4%	D: -0.1%

CCOc1ccccc1C(=O)Oc1ccc2ccc(=O)oc2c1
  A: .	B: -5%	C: -6%	D: -10%

CC(C)=CCOc1ccc2c(C)c(CC(=O)N3C[C@H]4C[C@@H](C3)c3cccc(=O)n3C4)c(=O)oc2c1C
  A: .	B: -13%	C: ?	D: ?

COc1cc(C)c(Br)cc1S(=O)(=O)NCc1ccncc1
  A: 3	B: 15%	C: 3%	D: -1.6%

O=P(O)(c1ccc(Cl)cc1)c1ccc(Cl)cc1
  A: -5	B: -3%	C: 2%	D: -1.7%

O=C(Nc1ccc2c(c1)oc1ccccc12)c1ccc(Br)o1
  A: 6	B: -54%	C: -21%	D: -3.9%

O=C(CN1C(=O)NC(c2ccccc2)(c2ccccc2)C1=O)NC1CCCCC1
  A: .	B: .	C: 7%	D: -3.2%

Cc1nn(C(C)C(=O)N/N=C/c2ccc(N(C)C)cc2)c(C)c1[N+](=O)[O-] (centres undefined)
  A: -10	B: 0%	C: 0%	D: 1.6%

CCOc1ccc(NC(=O)CN(C)CC(=O)NC(C)c2ccccc2)cc1OCC (centres undefined)
  A: -3	B: -4%	C: 10%	D: 3.0%

COc1ccc(Cl)cc1N(CC(=O)NCCSCc1ccccc1)S(C)(=O)=O
  A: .	B: 4%	C: 2%	D: 4.7%

Cc1ccc(Cn2c(NCCCn3ccnc3)nc3c2c(=O)n(C)c(=O)n3C)cc1
  A: 4	B: -14%	C: -9%	D: 11%

Cc1ccc(/C(C#N)=C\c2ccc(N3CCOCC3)o2)cc1
  A: -8	B: 24%	C: ?	D: ?

CNC(=O)c1ccc(-c2ccc(F)cc2)s1
  A: -9	B: -59%	C: 1%	D: -1.2%

COc1ccc(Cc2nnc(SC)[nH]c2=O)cc1
  A: 2	B: 3%	C: 9%	D: 0.3%

CCN(C(=O)CCCCC(=O)N(CC)c1ccccc1)c1ccccc1
  A: .	B: .	C: -2%	D: -0.5%

N#Cc1c(NC(=O)CSc2nnc(-c3ccccc3O)n2-c2ccccc2)sc2c1CCCC2
  A: 3	B: -2%	C: -17%	D: 0.2%

C/C(=N\NC(=O)CNC(=O)c1cccnc1)c1cccc(O)c1
  A: .	B: 0%	C: 0%	D: 3.4%

COc1ccc(OC)c(C2SCCN2S(=O)(=O)c2cccc(C(F)(F)F)c2)c1 (centres undefined)
  A: 1	B: 4%	C: -2%	D: 0.3%

Cc1nc(N2CCN(c3ccccn3)CC2)c2c(C)c(C(=O)Nc3c(F)cc(F)cc3Br)sc2n1
  A: .	B: ?	C: -12%	D: -3.4%

COCCN1C(=O)c2oc3ccccc3c(=O)c2C1c1ccc(C(=O)OC)cc1 (centres undefined)
  A: 8	B: 4%	C: 3%	D: 0.9%

An excerpt from above in order of SMILES length, smallest number first:
Short keys: A = GLA inh pH 4.5; B = miR-21 FLuc; C = Rango dissoc inh; D = Rango-impB inh
CCOc1ccccc1C(=O)Oc1ccc2ccc(=O)oc2c1
  A: .	B: -5%	C: -6%	D: -10%

COCCN(C(=O)CCN1C(=O)C2CC=CCC2C1=O)c1c(N)n(CC(C)C)c(=O)[nH]c1=O (centres undefined)
  A: .	B: .	C: 23%	D: -5.0%

CC(C)=CCOc1ccc2c(C)c(CC(=O)N3C[C@H]4C[C@@H](C3)c3cccc(=O)n3C4)c(=O)oc2c1C
  A: .	B: -13%	C: ?	D: ?

Additional records.
Short keys: A = GLA inh pH 4.5; B = miR-21 FLuc; C = Rango dissoc inh; D = Rango-impB inh
O=C(CSc1nc2ccccc2o1)Nc1nc2ccc(Br)cc2s1
  A: -2	B: -18%	C: 0%	D: -1.3%

COC(=O)c1sccc1NC(=O)COc1ccc(F)cc1Cl
  A: 5	B: -45%	C: -12%	D: 0.4%

O=C(OCC(=O)N1CCc2ccccc21)c1ccccn1
  A: 10	B: -1%	C: -7%	D: -1.3%

CC(=O)Oc1ccc(-c2nc(-c3cccnc3)no2)cc1
  A: 4	B: -39%	C: -4%	D: 1.8%

COc1ccc(CN2CCNC(=O)C2CC(=O)N(Cc2nccn2C)C(C)C)c(OC)c1 (centres undefined)
  A: 2	B: 2%	C: -7%	D: -0.1%

NC(=O)CSc1cn(Cc2ccc(F)cc2)c2ccccc12
  A: 3	B: 19%	C: 13%	D: -1.3%

Cc1ccc(S(=O)(=O)N(C)c2ccc(C(=O)NCc3ccccn3)cc2)cc1
  A: -1	B: -2%	C: -1%	D: -1.4%

C=C(C)c1cccc(C(C)(C)NC(=O)Nc2cccnc2)c1
  A: .	B: 3%	C: ?	D: 2.1%

COc1ccc(/C=N/NC(=O)CN(C2=NS(=O)(=O)c3ccccc32)c2ccccc2)cc1
  A: 5	B: -5%	C: 8%	D: -2.3%

COc1ccc(C(CNC(=O)CCNS(=O)(=O)c2ccc(Br)cc2)N2CCCC2)cc1 (centres undefined)
  A: .	B: .	C: 8%	D: -0.6%

C/C(Cc1nnn(-c2cc(C)on2)n1)=N\O
  A: 2	B: -1%	C: 7%	D: 0.8%

COC(=O)C1=C(C(=O)OC)C(c2cc(Cl)ccc2O)c2sc(=O)[nH]c2S1 (centres undefined)
  A: 10	B: -3%	C: -14%	D: -3.5%

Cc1ccc(S(=O)(=O)Cc2ccc(C(=O)O)o2)cc1
  A: 4	B: -2%	C: -20%	D: ?

S=C(NN=C(C1CC1)C1CC1)Nc1ccccc1
  A: -1	B: -59%	C: 2%	D: ?

CCOc1ccccc1OCC(=O)OCC(=O)NNC(=O)c1ccc([N+](=O)[O-])cc1
  A: .	B: 1%	C: -2%	D: 1.1%

Cc1c(Br)c(C(F)(F)F)nn1CC(=O)NCc1ccco1
  A: 3	B: 1%	C: -11%	D: -0.5%

CC(C)[C@H](NC(=O)c1ccccc1)C(=O)OCC(=O)Nc1ccc(S(=O)(=O)N2CCOCC2)cc1
  A: .	B: .	C: 1%	D: -3.3%

CC(C)C[C@H](NC(=O)c1nc[nH]c1C(=O)NCc1ccc(CNC(=O)OC(C)(C)C)cc1)C(=O)OC(C)(C)C
  A: .	B: 22%	C: -17%	D: 3.1%

Nc1nnc(SC2CC(=O)N(c3ccccc3)C2=O)s1 (centres undefined)
  A: 7	B: 6%	C: -9%	D: 0.2%

CCOC(=O)C1CCCN(C(=O)C(=O)c2cn(CC(=O)N3CCOCC3)c3ccccc23)C1 (centres undefined)
  A: .	B: 1%	C: -7%	D: -2.2%

O=C(COC(=O)c1ccccc1O)Nc1cccc(S(=O)(=O)NC2=NCCCCC2)c1
  A: 4	B: 1%	C: 13%	D: 1.5%

Cc1ccc(C(=O)N2CCN(c3ccccc3)CC2)cc1S(=O)(=O)N1CCCC1
  A: 4	B: 14%	C: -4%	D: 0.5%

CC(C)N1CCC(N2CCN(C3CCCCC3)CC2CCO)CC1 (centres undefined)
  A: 3	B: 1%	C: -15%	D: 3.8%

COc1cc(C(=O)Nc2ccc(S(=O)(=O)Nc3cnc4ccccc4n3)cc2)cc(OC)c1OC
  A: .	B: 0%	C: -8%	D: 0.3%

CC(C)C(=O)Nc1ccc(NC(=O)c2ccco2)cn1
  A: 6	B: -41%	C: 11%	D: -2.1%

The results go on:
| molecule | GLA inh pH 4.5 | miR-21 FLuc | Rango dissoc inh | Rango-impB inh |
| --- | --- | --- | --- | --- |
| CC1CCCC(NC(=O)COC(=O)c2ccc([N+](=O)[O-])s2)C1C (centres undefined) | . | . | -15% | -2.5% |
| COC(=O)[C@@H]1CC[C@@](C)(c2ccc(OC)cc2)C1(C)C | . | . | -11% | 1.2% |
| CC(=O)Nc1ccc2nc(NC(=O)c3cccnc3)sc2c1 | 2 | -43% | 27% | 3.5% |
| COc1ccc(-c2cn[nH]c2-c2ccc(OCc3ccccc3)cc2O)cc1 | -22 | 25% | 8% | -0.5% |
| CCOc1ccc(-c2c(C(=O)N/N=C/c3ccco3)nnn2-c2nonc2N)cc1 | . | -2% | -3% | 0.6% |
| CCCN1CCC(NC(=S)Nc2ccc(C(=O)OCC)cc2)CC1 | -13 | -2% | 1% | -3.3% |
| CN(c1cccc(Cl)c1)S(=O)(=O)c1cccc(C(=O)Nc2ccc3c(c2)CCC3)c1 | 6 | 14% | 1% | -2.7% |
| O=C(NCCc1ccc(Cl)cc1)C1CC(=O)N(CCc2ccccc2)C1 (centres undefined) | . | -2% | ? | 5.4% |
| O=C(Nc1cccc(OCC(=O)N2CCOCC2)c1)C1CCCCC1 | -2 | 3% | 20% | 0.2% |
| CCc1cc(=O)oc2c(CN3CCN(C)CC3)c(O)c(Cl)cc12 | ? | -7% | ? | ? |
| Cc1ccc(/C=N\NC(=O)Cn2nnc3ccccc32)o1 | -1 | -2% | 1% | -7.6% |
| CCOc1ccc(-n2c(SCC(=O)O)nc3sc4c(c3c2=O)CCCC4)cc1 | . | -3% | 10% | 5.3% |
| CC(C)N(C(=O)[C@H]1C[C@H](CC(=O)NCc2cccc(C(F)(F)F)c2)C(=O)N2CCc3c([nH]c4cc(-c5ccco5)ccc34)[C@]12C)C(C)C | . | . | -1% | -2.7% |
| CCCCn1c(N)c(N(CC(C)C)C(=O)c2cc(Cl)nc3ccccc23)c(=O)[nH]c1=O | . | . | -10% | ? |
| COC(=O)c1ccc(/C=N/NC(=O)C(=O)NCc2ccccc2)cc1 | 6 | 3% | 15% | -1.3% |
| COCCN(CC(=O)Nc1ccccc1C(F)(F)F)C(=O)/C=C/c1cc(Cl)c2c(c1)OCCO2 | . | . | -5% | -5.0% |
| Cc1cc(C(=O)CSc2nnc(-c3ccc(Cl)cc3)n2C)c(C)n1CC1CCCO1 (centres undefined) | 13 | -6% | -3% | 7.6% |
| CSc1nc(-c2ccccc2)nc(NC(=O)C(C)C)c1C(C)=O | 5 | 4% | 6% | 0.2% |
| CCc1cc2cc(C(=O)N3CCN(c4ccccc4)CC3)sc2s1 | 4 | -1% | 11% | -3.0% |
| CCc1ccc(S(=O)(=O)NCc2csc(C)n2)s1 | 0 | -14% | 9% | -2.0% |

Gathered by group: the entries above containing an aryl thioether with sulfur outside any ring (8)
| molecule | GLA inh pH 4.5 | miR-21 FLuc | Rango dissoc inh | Rango-impB inh |
| --- | --- | --- | --- | --- |
| COc1ccc(Cc2nnc(SC)[nH]c2=O)cc1 | 2 | 3% | 9% | 0.3% |
| N#Cc1c(NC(=O)CSc2nnc(-c3ccccc3O)n2-c2ccccc2)sc2c1CCCC2 | 3 | -2% | -17% | 0.2% |
| O=C(CSc1nc2ccccc2o1)Nc1nc2ccc(Br)cc2s1 | -2 | -18% | 0% | -1.3% |
| NC(=O)CSc1cn(Cc2ccc(F)cc2)c2ccccc12 | 3 | 19% | 13% | -1.3% |
| Nc1nnc(SC2CC(=O)N(c3ccccc3)C2=O)s1 (centres undefined) | 7 | 6% | -9% | 0.2% |
| CCOc1ccc(-n2c(SCC(=O)O)nc3sc4c(c3c2=O)CCCC4)cc1 | . | -3% | 10% | 5.3% |
| Cc1cc(C(=O)CSc2nnc(-c3ccc(Cl)cc3)n2C)c(C)n1CC1CCCO1 (centres undefined) | 13 | -6% | -3% | 7.6% |
| CSc1nc(-c2ccccc2)nc(NC(=O)C(C)C)c1C(C)=O | 5 | 4% | 6% | 0.2% |

The list is partial; count on the stated rates, not on these rows.
